# Bioassay records deposited in PubChem BioAssay by several laboratories.
# AF4-AF9 inh – inhibitors of AF4 peptide binding to AF9, primary screen, biochemical, AlphaScreen, biotin-AF4 peptide, FLAG-AF9, single point. Protein AF-9 (Homo sapiens), P42568. 350,000 tested, 0.47% active. AID 651704, 2012. inhibition, % at 10 µM;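 active = every replicate reaching a set inhibition limit, whatever the replicate mean, cut at about 25% in these data; inconclusive = mean inhibition reaches that limit but some replicates miss it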;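 also: 0% = plate neutral control median and 100% = total signal loss; the record names both 10 and 1 µM as test concentration; the first replicate is given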
# RanGTP-Impb inh – inhibitors of RanGTP-importin-beta interaction, primary screen, biochemical, FRET, CFP-Ran, YFP-importin-beta, homogeneous; AID 2216, 2009; 300,000 tested, 1.1% active; cell-free CFP-Ran/YFP-importin-beta FRET ratio; inhibition, % (concentration not given with the values);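 active = most replicates above 15%; inconclusive = exactly half above 15%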;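 also: 0% = DMSO wells and 100% = Ran loaded with GDP instead of GTP; wells of about 40 µL received 100 nL stock; the first replicate is given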
# Vif A3G – inhibitors of Vif binding to APOBEC3G peptide, primary screen, biochemical, TR-FRET, GST-Vif 1-94, biotin-A3G peptide, dose response retest (AID 1117319); Virion infectivity factor (Human immunodeficiency virus type 1 group M subtype B (isolate …; TR-FRET GST-Vif / biotin-A3G peptide binding; higher % means a stronger effect; test concentration not given here; strong numbers were not always called active; inhibition, %; hits with a dose series show IC50 in µM; 260,000 tested, 0.57% active;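 active = above the screen mean plus three standard deviations and confirmed in dose response; inconclusive = results disagree or hit not tested in dose response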;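 also: Vif residues 1-94 fused to GST binding biotinylated APOBEC3G peptide 110-148; 0% = full assay without inhibitor and 100% = GST in place of GST-Vif; retest series ran down from 100 µM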
# FGF22 binding – binders of human FGF22 protein, primary screen, FGF22 synaptogenesis inhibitor project, biophysical, thermal shift, single point. 340,000 tested, 1.5% active. AID 651658, 2012. calls only at 9.99 µM. recombinant FGF22 thermal shift, SYPRO orange fluorescence; percent of sucrose octasulfate shift, DMSO zero;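 active = melting point raised past a set limit in the mean and every replicate; inconclusive = no clear call; three in four hits are not shown here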
# Target sequence (Q9HCT0 whole entry, looked up): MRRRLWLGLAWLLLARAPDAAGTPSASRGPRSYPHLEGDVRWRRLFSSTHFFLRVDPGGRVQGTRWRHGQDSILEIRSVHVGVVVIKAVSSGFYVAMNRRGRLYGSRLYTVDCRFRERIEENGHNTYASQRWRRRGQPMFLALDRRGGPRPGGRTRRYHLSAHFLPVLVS
# UCH37 inh – inhibitors of human UCH37 deubiquitinase, primary screen, biochemical, Ub-AMC cleavage, fluorescence. 330,000 tested, 0.33% active. purified proteasome/UCH37. AID 588478, 2011. inhibition, % (test concentration not listed);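 active = mean of two replicates above 20%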;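 also: 0% = compound-free wells with enzyme and 100% = wells lacking proteasome; stock transfer was 100 nL into about 20 µL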
# Target sequence (Q9Y5K5 whole entry, looked up): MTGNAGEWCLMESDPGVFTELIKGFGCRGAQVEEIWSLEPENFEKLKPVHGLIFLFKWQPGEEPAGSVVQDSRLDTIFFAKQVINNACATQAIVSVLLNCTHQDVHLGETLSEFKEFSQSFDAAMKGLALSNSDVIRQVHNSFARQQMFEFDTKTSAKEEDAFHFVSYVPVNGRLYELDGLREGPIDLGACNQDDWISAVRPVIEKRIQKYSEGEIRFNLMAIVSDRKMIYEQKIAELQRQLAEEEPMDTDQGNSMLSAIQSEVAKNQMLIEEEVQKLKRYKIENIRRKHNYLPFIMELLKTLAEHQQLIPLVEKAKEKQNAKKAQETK
#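 system = Proteasome-associated human UCH37 deubiquitinase | amount = 0.15 nM proteasome as dispensed | medium = pH 7.4 Tris-HCl (50 mM) with ovalbumin, ATP-MgCl2, DTT | incubation = 30 min preincubation with enzyme, 25 min cleavage at room temperature | detection = AMC fluorescence 355/460 nm | read-out basis = percent inhibition | controls = no-proteasome and no-compound wells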
# Ecoli growth – E. coli growth inhibition, primary screen, OD600; Escherichia coli growth, 23 h; hits give low values; OD600 absorbance (no concentration beside the values); 330,000 tested, 0.21% active;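 active = OD600 absorbance below the run mean of sample wells minus 3.6 SD, in any replicate, cut at about 0.56 in these data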;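 also: stock transfer was 300 nL into about 60 µL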
# HNF4A DNA FP – change in binding of human HNF4A to DNA, primary screen, biochemical, fluorescence polarization, FITC-DNA; activity change, % at 10 µM; 1 h; 360,000 tested, 0.3% active; Hepatocyte nuclear factor 4-alpha (Homo sapiens), P41235; in the data active = activity change above about 30%, passing the limit was not always enough;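 also: controls were the assay level and a saturating level of protein; the project sought stronger binding though the title names inhibitors; some compounds called inactive have numbers as strong as hits; positive values seem to mean higher polarization but the record does not say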
# Target sequence (P41235 whole entry, looked up): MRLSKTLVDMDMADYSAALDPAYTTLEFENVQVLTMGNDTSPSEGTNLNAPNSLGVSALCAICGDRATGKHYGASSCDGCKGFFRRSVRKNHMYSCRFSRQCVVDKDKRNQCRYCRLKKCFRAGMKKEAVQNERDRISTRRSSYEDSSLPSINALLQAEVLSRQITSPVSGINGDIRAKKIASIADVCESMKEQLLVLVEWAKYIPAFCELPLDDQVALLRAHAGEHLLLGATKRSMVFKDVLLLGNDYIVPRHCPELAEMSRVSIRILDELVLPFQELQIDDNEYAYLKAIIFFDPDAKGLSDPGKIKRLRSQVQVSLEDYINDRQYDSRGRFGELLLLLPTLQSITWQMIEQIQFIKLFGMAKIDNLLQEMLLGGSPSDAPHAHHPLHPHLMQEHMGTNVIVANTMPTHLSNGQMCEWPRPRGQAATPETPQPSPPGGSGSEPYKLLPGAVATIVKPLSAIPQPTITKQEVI
# Active calls of the source: *; i = inactive; u = inconclusive; x = not tested or not shown. Not all compounds are listed; the hit share may differ from the screen's.
SMILES,AF4-AF9 inh,RanGTP-Impb inh,Vif A3G,FGF22 binding,UCH37 inh,Ecoli growth,HNF4A DNA FP
S=C(NCc1ccccc1Cl)Nc1ccccc1Cl,-3.9,2.6,u,i,-0.4,0.65,3.8
O=[N+]([O-])c1ccc(/C=N/Nc2ncc(Br)cn2)cc1,1.9,-0.9,x,i,x,x,5.3
CN1CCN(S(=O)(=O)c2cccc(C#N)c2)C(c2ccccc2)C1 (stereo unspecified),-1.2,x,1%,i,1.4,0.59,1.6
COc1cccc(COC(=O)c2ccc3c(=O)n4c(nc3c2)CCC4)c1OC,-17,2.2,1%,i,3.6,0.68,-1.1
CC(=O)NC(Cc1cccc(C)c1)C(=O)NC1CCN(C(=O)NCc2ccccc2)CC1 (stereo unspecified),-21,-0.1,1%,i,0.3,0.7,1.7
O=C(Nc1nc2cc3c(cc2s1)OCO3)C1CC1,-5.3,7.7,u,i,-27,0.69,1.8
Cc1[nH]c(=O)c(C#N)c(C)c1[N+](=O)[O-],0.9,4.7,u,i,5.7,0.69,-3.8
CCCCn1nnnc1C1(C)CCC(=O)N1CCOC (stereo unspecified),-2.5,x,x,i,x,x,2.8
O=C(O/N=C\c1ccc(N2CCCCC2)c([N+](=O)[O-])c1)c1cccc(Cl)c1,x,-0.2,24%,x,x,x,-1.2
COc1ccc(/C=C2/SC(=S)N(Cc3ccccc3)C2=O)cc1O,-3.0,4.3,0%,i,2.8,0.65,4.4
O=C(Cc1nn[nH]n1)Nc1ccc(F)cc1F,0.0,2.8,u,i,0.9,0.7,-0.9
O=C(c1ccc(F)cc1F)N1CCCC(c2nc(-c3cccs3)no2)C1 (stereo unspecified),-0.6,5.0,7%,i,1.8,0.68,0.9
COCCNc1ncnc2c1ncn2[C@H]1CN(Cc2ccc(OC)cc2)C[C@@H](CO)O1,0.4,x,x,i,x,x,-0.5
COc1cccc(Nc2nnc(SCc3nc4ccccc4s3)s2)c1,7.6,1.7,x,i,-3.4,0.68,1.4
CC1CCCCN1C(=O)CSc1nnc(-c2cccnc2)o1 (stereo unspecified),-3.1,0.8,x,i,1.5,0.65,1.1
COc1cc(OC)cc(C(=O)NCCSCc2ccc(Cl)cc2)c1,-10,-6.9,x,i,2.1,0.66,2.7
CCC1(c2ccccc2)NC(=O)N(CC(=O)Nc2ccc3c(c2)CCC3)C1=O (stereo unspecified),-2.0,x,x,i,x,x,-0.8
CC(OC(=O)c1ccc2ccccc2c1)C(=O)N(C)Cc1ccccc1 (stereo unspecified),-0.2,x,5%,i,-0.1,0.64,-2.7
Cc1ccc2c(c1)C(c1ccc([N+](=O)[O-])cc1)=NNC(c1ccc(Br)cc1)=N2,x,0.3,x,x,5.3,0.75,1.9
CCN(c1ccccc1)S(=O)(=O)c1cccc(C(=O)O)c1,11,1.6,5%,i,2.5,0.69,-1.7
Cc1ccccc1NS(=O)(=O)c1ccc(S(=O)(=O)N2CCCC2)cc1,-2.6,x,x,i,x,x,-1.3
CCOC(=O)N(C)c1c(CC)nc2c(OCCC3CCCCC3)cccn12,3.1,x,x,i,x,x,0.3
CCOc1cc(C)c(S(=O)(=O)Nc2ccc(F)cc2)cc1C,x,0.3,7%,x,4.2,0.71,-2.3
CCOC(=O)C1(Cc2ccc(OC)cc2)CCN(C(=O)c2cc(C)nn2C)CC1,0.8,0.6,x,i,-0.1,0.69,-2.0

# Look-ups from above.
# Vif A3G, `COc1ccc(/C=C2/SC(=S)N(Cc3ccccc3)C2=O)cc1O` → 0%
# HNF4A DNA FP, `CC1CCCCN1C(=O)CSc1nnc(-c2cccnc2)o1` (stereo unspecified) → 1.1
# HNF4A DNA FP, `CCOC(=O)C1(Cc2ccc(OC)cc2)CCN(C(=O)c2cc(C)nn2C)CC1` → -2.0
# HNF4A DNA FP, `CCOC(=O)N(C)c1c(CC)nc2c(OCCC3CCCCC3)cccn12` → 0.3
# HNF4A DNA FP, `CCOc1cc(C)c(S(=O)(=O)Nc2ccc(F)cc2)cc1C` → -2.3
# RanGTP-Impb inh, `O=[N+]([O-])c1ccc(/C=N/Nc2ncc(Br)cn2)cc1` → -0.9

# Continuation:
SMILES,AF4-AF9 inh,RanGTP-Impb inh,Vif A3G,FGF22 binding,UCH37 inh,Ecoli growth,HNF4A DNA FP
CNc1nc(SC)nc(N(C)C#N)n1,-6.2,-3.7,-5%,i,3.2,0.7,-5.6
CC1=C(C(=O)OCc2ccccc2)C(c2ccccc2Br)NC(=O)N1 (stereo unspecified),0.5,4.3,-2%,i,3.7,0.69,2.7
O=C(O)CCCC(=O)NCc1c(Cl)cccc1Sc1ccc(Cl)cc1,-2.9,0.8,x,i,6.2,0.65,2.5
CC(=O)c1c(C)[nH]c(C(=O)OCC(=O)c2c(N)n(C)c(=O)n(C)c2=O)c1C,x,-0.2,x,x,-2.1,0.71,x
CN(c1ccccc1)S(=O)(=O)c1ccc(C(=O)Nc2nnc(-c3ccc(F)cc3)o2)cc1,x,-1.2,4%,x,0.6,0.64,x
O=C1CCC(C(=O)OCC(=O)c2ccccc2)N1 (stereo unspecified),-0.3,0.3,x,i,0.9,0.61,-4.0
CCC(c1nnnn1Cc1ccc2c(c1)OCO2)N1CCN(c2ccc(F)cc2)CC1 (stereo unspecified),x,0.8,u,x,0.8,0.69,-4.5
CN(C)Cc1c(C(=O)N/N=C/c2ccc(-c3ccccc3)cc2)nnn1-c1nonc1N,1.3,4.0,x,i,x,x,1.1
C=CCSc1nc2c(c(=O)[nH]1)C(C(C)C)C(C#N)=C(N)O2 (stereo unspecified),-0.7,-1.7,-2%,i,0.1,0.76,1.4
CC(C)(C)c1cc(CCC(=O)N2CCC2)cc(C(C)(C)C)c1O,4.9,-1.4,5%,i,5.9,0.7,2.3
CCCCSc1nnc([C@@H](NC(=O)OC(C)(C)C)C(C)C)o1,x,-3.6,-3%,x,5.8,0.72,-3.7
N#CCC(=O)NCCCc1ccccc1,x,6.2,6%,x,0.0,0.71,1.5
C#CCN(C(=O)c1ccc(OC2CCN(Cc3ccccn3)CC2)cc1)C1CCCCC1,4.4,-0.1,-7%,i,-0.6,0.66,-1.8
COc1cc(NC(=S)Nc2ccccn2)c(OC)cc1Cl,-3.1,-0.4,3%,i,-1.2,0.76,4.3
CCN1CCC[C@H]1CNC(=O)c1c(OC)ccc(Br)c1OC,-0.7,x,x,i,2.7,x,-0.7
Cc1ccccc1N/C(=C(/C(Cl)=C(Cl)Cl)[N+](=O)[O-])n1nnc2ccccc21,-31,7.1,2%,i,1.7,0.69,5.0
COc1ccc(S(=O)(=O)NCCC(=O)NC2CCCCC2C)cc1[N+](=O)[O-] (stereo unspecified),-5.5,x,19%,i,0.5,0.67,-0.3
CC(=O)N(c1cccc(Br)c1)C1C=CS(=O)(=O)C1 (stereo unspecified),x,-1.2,-1%,x,3.2,0.7,3.1
Cc1ccccc1OCCSc1nnc(C)n1-c1ccccc1,x,1.0,6%,x,2.7,0.71,0.7
COc1ccc(C/C(C)=N/NC(=S)Nc2ccc(Cl)cc2)cc1,-65,0.2,28%,i,x,x,-0.4
COc1ccc(-c2c(-c3cc(OC)cc(OC)c3)sc3ccc(OC)cc23)cc1,2.2,x,x,i,0.5,0.74,1.2
N#CC1=C(N)Oc2cc(N)ccc2C1c1cccc(Br)c1 (stereo unspecified),-2.4,55*,x,i,1.7,0.69,13
CC1=CC(c2ccccc2)n2nnnc2N1 (stereo unspecified),2.9,-4.1,x,i,-10,0.7,3.1
CC1CCCC(NC(=O)CCNC(=O)c2ccc(Br)cc2)C1C (stereo unspecified),-0.1,x,-3%,x,2.5,0.68,-1.9
CC(C)CNC(=O)C(=O)N/N=C/c1cccs1,x,4.2,6%,x,x,x,0.1
CC(C)(C)c1ccc(COC(=O)CN2C(=O)NC3(CCCC3)C2=O)cc1,-7.0,3.7,6%,i,1.0,0.68,-2.0
CCCc1nc(SCC(=O)N2CCc3ccccc3C2)c2ccccc2n1,-0.1,-1.1,-9%,i,9.8,0.73,2.1
COc1ccc(C)cc1NC(=O)CN(C)S(=O)(=O)c1cnc[nH]1,-21,4.8,11%,i,-0.3,0.64,0.0
Fc1ccc2nc(N3CCCC3)sc2c1,-0.8,-1.5,0%,i,2.8,0.69,34*
Cc1ccc(C)c(OCC(=O)N2CCc3ccccc3C2)c1,-1.8,-1.5,1%,i,3.7,0.7,4.3
O=C(N/N=C/c1c[nH]c2ccccc12)c1ccccc1,-1.4,u,x,i,x,x,-2.7
CCOC(=O)NNC(=O)C12CC3CC(CC(C3)C1)C2,-0.7,3.6,26%,i,0.1,0.68,-3.5
CCOC(=O)c1cccc(NC(=O)C2CCN(S(=O)(=O)c3cccs3)CC2)c1,2.5,2.4,1%,i,1.6,0.63,-0.7
COc1ccc(S(=O)(=O)Nc2cccc(-c3ccc(N4CCCCCC4)nn3)c2)c(OC)c1,-3.5,7.5,x,i,1.4,0.7,0.0
Cc1ccc(NC(=O)CN2C(=O)S/C(=C/c3ccc(-c4cc(C(=O)O)ccc4C)o3)C2=O)cc1C,x,36*,u,x,-2.1,0.7,-13
O=C(CCS(=O)(=O)c1ccccc1)N(CCCN1CCOCC1)c1nc2ccc(F)cc2s1,0.2,1.7,x,i,x,x,1.7
C=CCNc1nc(N)c(C(=O)Nc2cc(C)on2)s1,x,2.0,0%,x,11,0.72,2.2
CC(/C=N/n1c(-c2n[nH]c3c2CCC3)n[nH]c1=S)=C\c1ccco1,-7.2,1.8,32%,i,x,x,-0.8
O=c1c2sc3nc(N4CCOCC4)c4c(c3c2ncn1C(c1ccccc1)c1ccccc1)CCCC4,0.5,x,x,i,-58,0.7,-1.0
CCN(C(=O)CSc1ccc2c(c1)OCCO2)C1CCS(=O)(=O)C1 (stereo unspecified),x,4.0,-5%,x,-0.6,0.71,6.4
C[C@]12c3[nH]c4cc(-c5ccco5)ccc4c3CCN1C(=O)[C@@H](CC(=O)NCc1ccco1)C[C@@H]2C(=O)N1CCCCC1,3.6,x,x,i,-9.4,0.71,0.9
COC(=O)c1cc(OC)nc(OC)c1,-1.0,-0.1,2%,i,-40,0.7,6.2
COc1ccc(NC(=O)NCCCN2CCN(c3cc(C)ccc3C)CC2)cc1,7.8,u,2%,i,2.1,0.74,3.8
CCOc1ccccc1NC(=O)CN(C)S(=O)(=O)c1cnc[nH]1,0.3,-9.2,x,i,-0.6,0.67,0.9
COc1ccc(NS(=O)(=O)c2cccc(C(=O)NN=Cc3cc(Br)c(O)c(Br)c3)c2)cc1,-1.4,x,-13%,i,1.2,0.69,10
CCCC(=O)NC(c1ccccc1Cl)c1c(O)ccc2ccccc12 (stereo unspecified),x,0.6,x,x,-1.3,0.69,-0.2
O=C(Nc1ccc2[nH]ncc2c1)C1CCC1,5.3,2.9,x,i,0.3,0.63,1.2
CCCC(=O)N1CCC1(C)C(=O)Nc1ccc(-n2cncn2)cc1 (stereo unspecified),-4.8,x,x,i,x,x,-0.9

# RanGTP-Impb inh: entries above that show a hit.
canonical_smiles | AF4-AF9 inh | RanGTP-Impb inh | Vif A3G | FGF22 binding | UCH37 inh
N#CC1=C(N)Oc2cc(N)ccc2C1c1cccc(Br)c1 (stereo unspecified) | -2.4 | 55* | x | i | 1.7
Cc1ccc(NC(=O)CN2C(=O)S/C(=C/c3ccc(-c4cc(C(=O)O)ccc4C)o3)C2=O)cc1C | x | 36* | u | x | -2.1
